NS1 function inh: influenza NS1 inhibition | S. cerevisiae slowed by influenza A NS1, growth recovery by OD600 | 270,000 compounds, 0.4% hits | Potency, µM (titrated, usually from 46.1 µM), for inactives: at the highest dose activity, positive = more growth | AID 2326; active means well fitted rising curve with a large enough effect; inconclusive means small, poorly fitted or top-dose-only effect; inactive means no such curve, though single readings can be large or run the other way; note: nearly all actives have a fitted effect of over 50% in size
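OD600 was taken as the measure of yeast growth restored by compound in an NS1-expressing S. cerevisiae strain. Cells had been washed out of glucose medium and diluted 1:100 into galactose -URA medium, pH 6.0.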
Marburg entry inh: inhibitors of Marburg virus binding or cell entry | AID 540276 | 300,000 compounds, 1.8% hits | Potency, µM (highest dose often 37.8 µM), for inactives: at the top dose activity change, negative = inhibition, usual class: inhibitors | Marburg virus pseudotyped entry inhibition, cell reporter; control for the full effect not named in the record; about a third of the inactives were read at about 46 µM; active = well fitted inhibition curve with a large enough effect; inconclusive = small, poorly fitted or top-dose-only effect, or effect the other way; inactive = flat fitted curve, though single readings scatter; tested in HEK293 cells; about a fifth of its hits are not listed in these tables; note: % is set by controls: 0 for no effect and ±100 for the full control effect; luciferase read-out
StopGo reporter: FMDV 2A StopGo reporter, luciferase signal; human cells with a luciferase reporter of 2A StopGo recoding; control for the full effect not named in the record; Potency, µM (top dose mostly 57.9 µM), for the others: top-dose signal change, negative = less light; 410,000 compounds, 1.2% hits; AID 1159524; active = well fitted falling curve with a large enough effect; inconclusive = small, poorly fitted or top-dose-only effect; inactive = no such curve, though single readings can be large or run the other way; tested in HEK293T cells; note: % is set by controls: 0 for no effect and ±100 for the full control effect; nearly all actives have a fitted effect of over 45% in size; luciferase light after 4 h
Cruzain noTriton: inhibitors of Trypanosoma cruzi cruzain without detergent. P25779. purified cruzain, Z-FR-AMC fluorescence, no detergent. Potency, µM, for inactives: max response, negative = inhibition, usual class: inhibitors. 200,000 compounds, 2.3% hits;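 note: plate controls were enzyme without inhibitor for no effect and buffer without enzyme for full effect; nearly all actives have a fitted effect of over 40% in size; top concentration of the series not given in the record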
Target sequence (P25779 123-467 limits assumed): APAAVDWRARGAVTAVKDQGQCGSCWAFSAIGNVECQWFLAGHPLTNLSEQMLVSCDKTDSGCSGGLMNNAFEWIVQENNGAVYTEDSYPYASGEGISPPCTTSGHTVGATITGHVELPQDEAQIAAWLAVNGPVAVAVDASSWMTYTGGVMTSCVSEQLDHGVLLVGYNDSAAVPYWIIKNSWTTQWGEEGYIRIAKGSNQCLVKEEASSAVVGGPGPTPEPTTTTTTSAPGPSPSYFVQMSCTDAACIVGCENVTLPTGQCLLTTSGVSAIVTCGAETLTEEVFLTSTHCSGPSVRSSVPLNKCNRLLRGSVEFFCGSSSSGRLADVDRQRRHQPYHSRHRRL
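Purified cruzain at 1.5 nM, pre-incubated 15 min with compound at room temperature in 100 mM sodium acetate pH 5.5, 5 mM DTT, 0.00005% Triton X-100. Reaction started with 2 uM Z-FR-AMC; AMC fluorescence increase over 60 s gives rate.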
Cruzain Triton: inhibitors of Trypanosoma cruzi cruzain with detergent. P25779. purified cruzain, Z-FR-AMC fluorescence, 0.01% Triton. Potency, µM, for inactives: max response, negative = inhibition, usual class: inhibitors. 200,000 compounds, 0.43% hits. AID 1478;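 note: plate controls were neutral wells for no effect and buffer without enzyme for full effect; nearly all actives have a fitted effect of over 40% in size; top concentration of the series not given in the record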
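Detergent-containing run (0.01% Triton X-100) in acetate buffer pH 5.5 with 5 mM DTT: enzyme at 1.5 nM final, 15 min compound preincubation at room temperature, then 2 uM Z-FR-AMC substrate. Activity taken as 60 s fluorescence increase at 360/450 nm.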
SARS PLpro yeast: blocks SARS-CoV papain-like protease in a yeast assay; S. cerevisiae expressing SARS-CoV PLpro, growth rescue; control for the full effect not named in the record; Potency, µM (titrated, usually from 32.9 µM), without a hit: at the top dose activity, positive = growth rescue; 330,000 compounds, 0.19% hits; active means well fitted rising curve with a large enough effect; inconclusive means small, poorly fitted or top-dose-only effect; inactive means no such curve, though single readings can be large or run the other way; note: 0% is about no effect; nearly all actives have a fitted effect of over 55% in size; growth read by luminescence after 48 h
RE007 growth inh: less growth of the S. pombe RE007 Vpr strain; S. pombe RE007 Vpr strain, BacTiter-Glo ATP luminescence, 24 h; control for the full effect not named in the record; Potency, µM (doses to about 92.2 µM), without a hit: at the highest dose activity change, negative = less growth; 360,000 compounds, 0.21% hits; active = well fitted falling curve with a large enough effect; inconclusive = small, poorly fitted or top-dose-only effect; inactive = no such curve, though single readings can be large or run the other way;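 note: % is set by controls: 0 for no effect and ±100 for the full control effect; nearly all actives have a fitted effect of over 50% in size; the assay follows cell death caused by Vpr and the record does not say whether a fall means rescue or toxicity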
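Fission yeast strain RE007, carrying one chromosomally integrated HIV-1 vpr copy, was seeded at OD 0.01 in PMG+AL medium with 23 nL pinned compound. After 24 h at 30 °C and 99% humidity, viability was read by BacTiter-Glo luminescence.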
Lassa entry inh: inhibitors of Lassa virus binding or cell entry; Lassa virus pseudotype entry inhibition, cell reporter; control for the full effect not named in the record; Potency, µM (series often up to 37.9 µM), without a hit: at the highest dose activity change, negative = inhibition, hits mostly inhibitors; 300,000 compounds, 1.2% hits; AID 540256; active means well fitted inhibition curve with a large enough effect; inconclusive means small, poorly fitted or top-dose-only effect, or effect the other way; inactive means flat fitted curve, though single readings scatter; tested in HEK293 cells; note: % is set by controls: 0 for no effect and ±100 for the full control effect; nearly all actives have a fitted effect of over 50% in size; luciferase read-out
* marks the source's active call; other numbers are inactive results; ? = inconclusive; nt = no result given; & = joins results of further samples; [ ] = remark or other dose. Unless noted, calls come from the whole dose curve; as a rule, active = well fitted curve in the direction sought with a large enough effect; inconclusive = small, poorly fitted or top-dose-only effect, or another doubt; inactive = no such curve, though single readings can be large; an effect the other way counts as inactive or inconclusive. Potency is the fitted concentration of half-maximal effect. Compounds as they come. Share with any hit: about 4.7%.

SMILES	NS1 function inh	Marburg entry inh	StopGo reporter	Cruzain noTriton	Cruzain Triton	SARS PLpro yeast	RE007 growth inh	Lassa entry inh
CCCN(CCC)C(=O)CSc1nc2ccccc2c(=O)n1C1CCCC1	-63%	?	-15%	-3%	-2.7%	-10%	34%	-29%
FC(F)(F)c1cc(N2CCN(Cc3ccccc3)CC2)c2ccccc2n1	-3%	-9%	?	nt	nt	2%	-6%	-15%
O=C(CSc1oc(-c2ccco2)nc1S(=O)(=O)c1ccc(Cl)cc1)c1ccc(Cl)cc1	nt	-26%[46.1 µM]	-1%	25µM*	-6.4%	nt	nt	3%[46.1 µM]
CCOc1ccc(Br)cc1S(=O)(=O)N1CCC(C(=O)O)CC1	nt	7%[46.1 µM]	1%	nt	nt	-6%	21%	0%[46.1 µM]
Cc1nnc(NC(=O)CSc2nnc(CC(=O)Nc3ccccc3C)n2C)s1	5%	8%[46.1 µM]	11%	nt	nt	-7%	0%	0%[46.1 µM]
Cc1cc(=O)[nH]c2c(C)c(Cl)ccc12	1%	-2%	nt	-22%	-1.6%	0%	nt	nt
Cc1ccccc1CN1CCCN(CC(=O)Nc2c(C)cccc2C)S1(=O)=O	nt	nt	-2%	10%	-1.3%	nt	nt	0%[46.1 µM]
Cc1ccc(N(CC(=O)N/N=C/c2ccc(OC3CSC3)cc2)S(=O)(=O)c2ccccc2)c(C)c1	?	?	-12%	16µM*	-4.9%	5%	0%	?
COc1cc(OC)cc(C(=O)N/N=C\c2ccoc2)c1	5%	?	5%	nt	nt	1%	12%	?
COc1cc(CN2CCN(CCOCCO)CC2)cc(OC)c1OC	6%	15%	-17%	-10%	0.4%	-4%	-6%	0%
CC(C)OCCCn1c(SCc2cccc(Br)c2)nc2c(sc3ccccc32)c1=O	nt	nt	-19%	14%	4.1%	nt	nt	0%[46.1 µM]
O=C(NCC1CCCO1)c1ccc2c(=O)n(-c3ccccc3)c(=S)[nH]c2c1 (stereo unspecified)	nt	-14%	-26%	nt	nt	0%	?	1%

Quoted at random: 3 compounds from above
SMILES	NS1 function inh	Marburg entry inh	StopGo reporter	Cruzain noTriton	Cruzain Triton	SARS PLpro yeast	RE007 growth inh	Lassa entry inh
COc1cc(OC)cc(C(=O)N/N=C\c2ccoc2)c1	5%	?	5%	nt	nt	1%	12%	?
COc1cc(CN2CCN(CCOCCO)CC2)cc(OC)c1OC	6%	15%	-17%	-10%	0.4%	-4%	-6%	0%
Cc1nnc(NC(=O)CSc2nnc(CC(=O)Nc3ccccc3C)n2C)s1	5%	8%[46.1 µM]	11%	nt	nt	-7%	0%	0%[46.1 µM]

Next records.
SMILES	NS1 function inh	Marburg entry inh	StopGo reporter	Cruzain noTriton	Cruzain Triton	SARS PLpro yeast	RE007 growth inh	Lassa entry inh
O=S(=O)(NCc1cccnc1)c1cccn1-c1ncc(C(F)(F)F)cc1Cl	-2%	?	-25%	nt	nt	0%	2%	-20%[46.1 µM]
COc1cc(NC(=O)CCn2c(=S)oc3ccccc32)cc(OC)c1OC	-7%	8%[46.1 µM]	-13%	nt	nt	-1%	9%	14%[46.1 µM]
COCCn1c(=NC(=O)/C=C/c2ccccc2Cl)sc2cc(NC(C)=O)ccc21	?	?	-18%	3%	-1.5%	27%	-3%	-1%
COc1cccc(C(=O)Nc2cc(NC(=O)c3cccs3)ccc2C)c1OC	-41%	nt	0%	nt	nt	-2%	7%	nt
Cc1cccc(NC(=O)NCC2CC2)c1	-1%	?	46%[activator]	nt	nt	-2%	-17%	-1%[46.1 µM]
Cc1nnc(N2CCCC(C(=O)NCc3ccccc3)C2)c2nn(-c3ccccc3)c(C)c12 (stereo unspecified)	nt	nt	9%	-8%	-3.7%	nt	nt	17%[46.1 µM]
NC(=O)c1ccccc1NC(=O)CC1(CC(=O)O)CCCC1	5%	15%[46.1 µM]	10%	nt	nt	-1%	1%	0%
O=C(Oc1oc(-c2ccco2)nc1C=Nc1ccc(Cl)cc1)c1ccco1	-24%	21%	?	?	-15%	-14%	?	1%
CC(C)(C)C(C(Oc1ccc(Cl)cc1)n1cncn1)n1nnnc1C(c1cccc(Cl)c1)N1CCCCC1 (stereo unspecified)	-8%	nt	nt	13%	-2.9%	-63%	nt	nt
Cc1ccccc1NC(=O)C1CCCN1/C=C/C(=O)C(F)(F)F (stereo unspecified)	10%	?	-10%	15%	-8.5%	7%	11%	9%
CN(C)S(=O)(=O)c1cccc(NC(=O)C(c2ccccc2)c2ccccc2)c1	-2%	?	5%	nt	nt	1%	17%	nt
CC(C)Cn1nc(C(=O)NCc2ccccc2CN2CCCC2)c2ccccc2c1=O	nt	-27%	-21%	nt	nt	-1%	9%	?

By substructure, the compounds so far containing a thiophene ring, fused or not.
SMILES	NS1 function inh	Marburg entry inh	StopGo reporter	Cruzain noTriton	Cruzain Triton	SARS PLpro yeast	RE007 growth inh	Lassa entry inh
CC(C)OCCCn1c(SCc2cccc(Br)c2)nc2c(sc3ccccc32)c1=O	nt	nt	-19%	14%	4.1%	nt	nt	0%[46.1 µM]
COc1cccc(C(=O)Nc2cc(NC(=O)c3cccs3)ccc2C)c1OC	-41%	nt	0%	nt	nt	-2%	7%	nt

Remaining list, next part.
SMILES	NS1 function inh	Marburg entry inh	StopGo reporter	Cruzain noTriton	Cruzain Triton	SARS PLpro yeast	RE007 growth inh	Lassa entry inh
CCN(CCO)Cc1cc(=O)oc2c(C)c(C)ccc12	-3%	22%	nt	-2%	-0.8%	5%	9%	4%
Cc1nnc2sc(COc3ccccc3)nn2c1=O	1%	nt	4%	nt	nt	1%	9%	nt
COC(=O)c1cc(S(=O)(=O)N2CCCCC2C)c[nH]1 (stereo unspecified)	0%	nt	-11%	nt	nt	5%	-8%	nt
COCCOC(=O)c1c(C)n(C)c2ccc(OC(=O)c3ccccc3F)cc12	3%	nt	0%	nt	nt	0%	1%	nt
Cc1cc(NC(=O)c2cccc3ccccc23)cc(C)c1OCC(=O)N1CCOCC1	-4%	-3%	-13%	?	0.2%	3%	-2%	3%
COC(=O)c1cn(NC(=O)c2ccccc2[N+](=O)[O-])c(=O)c2ccccc12	nt	?	-14%	nt	nt	0%	7%	7%
COc1cc(S(=O)(=O)N2CCOCC2)ccc1F	6%	8%	-7%	-1%	3.9%	-5%	13%	-6%
CCN(CC)S(=O)(=O)c1ccc2c(c1)N(CC(=O)Nc1ccc(NC(C)=O)cc1)C(=O)CO2	4%	?	-8%	nt	nt	0%	-1%	-11%[46.1 µM]
COc1ccc(NC(=O)NC2CCCCCCC2)c(OC)c1	-14%	nt	65%[activator]	nt	nt	1%	2%	nt
CCc1ccc(NC(=O)CC2C(=O)Nc3c2c(=O)n(C)c(=O)n3C)cc1 (stereo unspecified)	7%	6%	27%	8%	3.3%	1%	3%	?
CCOC(=O)C1=C(CN2c3ccccc3CC2C)NC(=O)NC1c1ccccc1 (stereo unspecified)	24%	?	-28%	-14%	-5.1%	6%	-4%	?
O=[N+]([O-])c1ccc(-c2nc3ccc([N+](=O)[O-])cc3[nH]2)cc1	-67%	-6%	?	-8%	-2.5%	-13%	-16%	?
Cc1cccc(OCC(=O)NC(=S)Nc2ccccc2N2CCOCC2)c1C	2%	7%	-21%	nt	nt	2%	0%	9%
CCOC(=O)C1=C(N)OC2=C(C(=O)CCC2)[C@]12C(=O)N(CC(N)=O)c1ccccc12	1%	nt	5%	nt	nt	-1%	24%	nt
CCOC(=O)c1sc(N)c(C(=O)Nc2ccccc2)c1C	-3%	nt	44%[activator]	nt	nt	0%	-14%	nt
O=C1CSC2=NCN(c3ccc4c(c3)OCO4)CN12	4%	-1%	55%[activator]	-6%	-1.6%	4%	?	24%
COC(=O)c1ccc(-n2c(C)cc(/C=N/n3cnnc3)c2C)cc1	-9%	?	0%	9%	-0.6%	-17%	19%	-9%
CC(=O)Nc1cccc(NC(=S)Nc2ccc(F)cc2F)c1	nt	8%[46.1 µM]	23%	nt	nt	0%	-14%	1%[46.1 µM]
COc1ccc(NC(=O)CN2C(=O)NC(C)(c3ccccc3)C2=O)c(OC)c1 (stereo unspecified)	4%	4%[46.1 µM]	0%	nt	nt	1%	-3%	?
O=C1CC(c2ccccc2)=NN1c1nc(-c2ccccc2)cs1	nt	-13%[46.1 µM]	26%	nt	nt	0%	-17%	?
CCSCCOC(=O)C1=C(C)NC(=O)NC1c1ccc2c(c1)OCO2 (stereo unspecified)	4%	-7%	-2%	7%	1.1%	22%	-2%	nt
Cc1cc(C(=O)Nc2ccncc2)ccc1[N+](=O)[O-]	-5%	?	13%	nt	nt	-2%	-10%	11%
COc1ccc(-n2c(SCc3nc(-c4ccc(Cl)cc4)no3)nnc2-c2ccncc2)cc1	nt	-13%[46.1 µM]	-25%	14%	-6.4%	nt	nt	-15%[46.1 µM]
CCOC(=O)C1(CC2CCCCO2)CCN(S(=O)(=O)c2ccccc2)CC1 (stereo unspecified)	-3%	nt	-26%	nt	nt	0%	3%	nt
CC(=O)c1cc2c(cc1NC(=O)Cn1nc(-c3ccc(F)cc3)ccc1=O)OCO2	-3%	10µM*	-22%	nt	nt	-2%	13%	nt
CC(Sc1nc(=O)cc(N)n1CCc1ccccc1)C(=O)NCc1ccccc1 (stereo unspecified)	nt	?	4%	nt	nt	1%	8%	-10%
CCNC(=O)C1CCCN(c2nnc(C)c3c(C)n(-c4ccc(C)cc4)nc23)C1 (stereo unspecified)	nt	nt	-20%	2%	-2.8%	nt	nt	-12%[46.1 µM]
Cc1c(NC(=O)c2ccc(N3C(=O)C4C5C=CC(C5)C4C3=O)cc2)c(=O)n(-c2ccccc2)n1C (stereo unspecified)	-19%	-2%&-2%	-10%	3%	1.4%	-2%	5%	-3%
Cc1cc(=O)n(CC(=O)N2CCCc3ccccc32)c2c1c(C)nn2-c1cccc(F)c1	nt	nt	-17%	-9%	-3.5%	nt	nt	?
CCC(C)NCCOc1ccc(C(C)(C)c2ccccc2)cc1 (stereo unspecified)	0%	?	?	nt	nt	0%	7%	?

High-throughput results: PubChem BioAssay, National Center for Advancing Translational Sciences (NCATS)
